GCN5L2 inh – inhibitors of human GCN5L2 histone acetyltransferase; Q92830; GCN5L2 HAT assay, ThioGlo1 CoA-SH fluorescence; Potency, µM (titrated, usually from 58.9 µM), for the others: top-dose activity change, negative = inhibition, hits mostly inhibitors; actives 0.21% (n = 390,000)
Target sequence (Q92830 whole entry, looked up): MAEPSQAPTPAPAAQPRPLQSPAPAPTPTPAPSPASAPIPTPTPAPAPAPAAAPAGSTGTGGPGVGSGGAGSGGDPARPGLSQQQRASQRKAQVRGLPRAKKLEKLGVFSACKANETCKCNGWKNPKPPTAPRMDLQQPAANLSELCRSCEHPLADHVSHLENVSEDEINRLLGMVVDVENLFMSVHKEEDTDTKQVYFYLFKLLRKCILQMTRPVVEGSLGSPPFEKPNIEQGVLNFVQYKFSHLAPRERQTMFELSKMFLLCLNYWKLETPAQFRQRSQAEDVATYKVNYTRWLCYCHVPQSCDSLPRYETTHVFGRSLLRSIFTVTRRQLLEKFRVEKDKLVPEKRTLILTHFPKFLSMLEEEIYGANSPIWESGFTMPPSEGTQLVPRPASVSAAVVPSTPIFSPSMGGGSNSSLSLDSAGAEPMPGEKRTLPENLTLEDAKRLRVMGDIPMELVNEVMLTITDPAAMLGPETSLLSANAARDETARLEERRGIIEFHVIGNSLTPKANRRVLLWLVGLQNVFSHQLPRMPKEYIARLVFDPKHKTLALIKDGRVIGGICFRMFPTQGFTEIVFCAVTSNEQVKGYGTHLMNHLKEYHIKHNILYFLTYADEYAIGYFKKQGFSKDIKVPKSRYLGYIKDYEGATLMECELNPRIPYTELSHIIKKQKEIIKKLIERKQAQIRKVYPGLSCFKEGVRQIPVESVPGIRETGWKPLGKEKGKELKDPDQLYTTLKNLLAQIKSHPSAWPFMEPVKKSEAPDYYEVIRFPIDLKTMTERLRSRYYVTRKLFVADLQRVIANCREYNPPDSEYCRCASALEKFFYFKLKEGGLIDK
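ThioGlo1-coupled HAT assay: 20nM GCN5L2, 70uM acetyl-CoA, 75uM H3(1-25) peptide, pH 7.5. Fluorescence read at 340/540nm at start and after 20 min at room temperature.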
TDP1 cell CPT – DT40-hTDP1 cell growth loss with CPT | actives 12% (n = 420,000) | Potency, µM (doses to about 46.2 µM), inactives show top-dose activity change, negative = growth inhibition, most hits filed as inhibitors | chicken DT40 Tdp1-/-;hTDP1 cells + 20 nM CPT, ATP luminescence, 48 h; further: nearly all actives have a fitted effect of over 55% in size
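Cell growth measured by CellTiter-Glo luminescence after a minimum 48 h, 37 C compound exposure with 20 nM CPT in Tdp1-knockout DT40 cells stably expressing hTDP1, seeded 400/well; qHTS titration format.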
Starred values were filed as active, the others as inactive; ? = inconclusive; . = not tested or not shown; & = joins results of further samples. The call rests on the fitted dose curve; in most records, active means well fitted curve in the direction sought with a large enough effect; inconclusive means small, poorly fitted or top-dose-only effect, or another doubt; inactive means no such curve, though single readings can be large; an effect the other way counts as inactive or inconclusive. On the % scale 0 is the no-effect control and ±100 the full control effect; potency means the concentration at half of the fitted maximal effect. Only part of the results is shown; most or all hits stand in other tables.

The first 14 records as a preview:
1. O=C(Cn1cc(/C=C\[N+](=O)[O-])c2ccccc21)Nc1ccccc1
2. CC(C)=CC(=O)Nc1ccc(S(=O)(=O)Nc2ccccn2)cc1
3. Cn1nnnc1SCC(=O)N1CCN(c2cccc(Cl)c2)CC1
4. CC(NC(=O)C1CCC1)c1ccc(Cl)cc1 (stereo unspecified)
5. O=C(Nc1ccc(F)c(F)c1)C1CCCN1S(=O)(=O)c1ccc(F)cc1 (stereo unspecified)
6. Cc1scc(C(=O)Nc2ccon2)c1-c1ccccc1
7. COC(=O)c1cn(CCC#N)nc1-c1ccc2ccccc2c1
8. O=C(Nc1nccs1)c1cnccn1

Compound | 1 | 2 | 3 | 4 | 5 | 6 | 7 | 8
GCN5L2 inh | -8% | 0% | -4% | -7% | -3% | 2% | -2% | -5%
TDP1 cell CPT | 21µM* | -10% | -25% | 7% | ? | -3% | 8% | 3%

9. Cc1cc(NC(=O)C(=O)c2c(C)[nH]c3ccccc23)no1
10. O=C(NCc1cccs1)c1cc(-c2ccccc2)nc2ccccc12
11. COC(=O)c1c(C(=O)OC)c(-c2ccc(OC)cc2)n2c1CCC2
12. COc1ccc(C(C)=O)cc1COc1cc(C)c(Cl)c(C)c1
13. Cc1ccc(NC(=O)NCc2ccc3[nH]c(C)cc3c2)cc1
14. Cc1c(NC(=S)Nc2ccc(Cl)cc2)c(=O)n(-c2ccccc2)n1C

Compound | 9 | 10 | 11 | 12 | 13 | 14
GCN5L2 inh | -8% | -5% | 1% | -3% | -8% | -7%
TDP1 cell CPT | 1% | 23µM* | -2% | -5% | 9% | -12%

All compounds of this part, from the first entry:
1. O=C(Cn1cc(/C=C\[N+](=O)[O-])c2ccccc21)Nc1ccccc1
2. CC(C)=CC(=O)Nc1ccc(S(=O)(=O)Nc2ccccn2)cc1
3. Cn1nnnc1SCC(=O)N1CCN(c2cccc(Cl)c2)CC1
4. CC(NC(=O)C1CCC1)c1ccc(Cl)cc1 (stereo unspecified)
5. O=C(Nc1ccc(F)c(F)c1)C1CCCN1S(=O)(=O)c1ccc(F)cc1 (stereo unspecified)
6. Cc1scc(C(=O)Nc2ccon2)c1-c1ccccc1

Compound | 1 | 2 | 3 | 4 | 5 | 6
GCN5L2 inh | -8% | 0% | -4% | -7% | -3% | 2%
TDP1 cell CPT | 21µM* | -10% | -25% | 7% | ? | -3%

7. COC(=O)c1cn(CCC#N)nc1-c1ccc2ccccc2c1
8. O=C(Nc1nccs1)c1cnccn1
9. Cc1cc(NC(=O)C(=O)c2c(C)[nH]c3ccccc23)no1
10. O=C(NCc1cccs1)c1cc(-c2ccccc2)nc2ccccc12
11. COC(=O)c1c(C(=O)OC)c(-c2ccc(OC)cc2)n2c1CCC2
12. COc1ccc(C(C)=O)cc1COc1cc(C)c(Cl)c(C)c1

Compound | 7 | 8 | 9 | 10 | 11 | 12
GCN5L2 inh | -2% | -5% | -8% | -5% | 1% | -3%
TDP1 cell CPT | 8% | 3% | 1% | 23µM* | -2% | -5%

13. Cc1ccc(NC(=O)NCc2ccc3[nH]c(C)cc3c2)cc1
14. Cc1c(NC(=S)Nc2ccc(Cl)cc2)c(=O)n(-c2ccccc2)n1C
15. Cc1ccccc1-n1c(=S)[nH]c2nc3c(cc2c1=O)COC(C)(C)C3
16. Cc1cccc(-n2cc(C#N)c(=O)[nH]c2=O)n1
17. COc1ccccc1NC(=O)COc1coc(CN2CCN(c3ccccc3)CC2)cc1=O
18. COc1cccc(CN2CCN(c3ncccn3)CC2)c1OC

Compound | 13 | 14 | 15 | 16 | 17 | 18
GCN5L2 inh | -8% | -7% | -3% | -4% | -8% | -4%
TDP1 cell CPT | 9% | -12% | -14% | 1% | -21% | -21%

19. CC1=C(C(=O)OCc2ccccc2)C(c2ccsc2)NC(=O)N1C (stereo unspecified)
20. CCC(C)(C)NS(=O)(=O)c1cc(CN2C(=O)c3cccnc3C2=O)ccc1OC
21. O=c1c2c(n3cnnc3n1-c1ccccc1)-c1ccccc1CC21CCCCC1
22. CCCNC(=S)Nc1ccc(Cl)cc1C
23. C=CCNC(=O)Nc1ccc(Br)cc1Cl
24. Cn1c(=O)c2c(ncn2CCC(=O)N/N=C/c2cccnc2)n(C)c1=O

Compound | 19 | 20 | 21 | 22 | 23 | 24
GCN5L2 inh | -17% | 4% | -12% | -1% | -15% | -3%
TDP1 cell CPT | ? | -7% | ? | -2% | -28% | -7%

25. CC(O)CNc1nc2ccccc2n1CC(=O)N1CCN(Cc2ccccc2)CC1 (stereo unspecified)
26. Cc1cccc(N(C(=O)Cn2nnc3ccccc32)C(C(=O)NC(C)(C)C)c2ccsc2)c1C (stereo unspecified)
27. COc1ccc(NC(=O)CN2CCN(CC(=O)Nc3ccc(F)cc3)CC2)c(OC)c1
28. Cc1cccc(C)c1NC(=S)N1CC(C)OC(C)C1 (stereo unspecified)
29. O=S(=O)(c1ccc(Oc2ccc(Br)cc2)cc1)N1CCOCC1
30. N/C(=N/OCC(=O)Nc1cccc2ccccc12)c1nonc1N

Compound | 25 | 26 | 27 | 28 | 29 | 30
GCN5L2 inh | -5% | -5% | -6% | -1% | -18% | -22%
TDP1 cell CPT | 0% | ? | ? | -4% | 16µM* | ?

31. CCOc1cc(CN2CCN(c3ncccn3)CC2)ccc1OC
32. Cc1c([N+](=O)[O-])cc(S(=O)(=O)Nc2ccc(-c3ccc(N4CCCC4)nn3)cc2)cc1[N+](=O)[O-]
33. COC(=O)c1cnn(-c2ccccc2)c1C(OC)OC
34. NC(=S)N=Nc1c(O)[nH]c2c(Br)cc(Br)cc12
35. COc1cc2[nH]c(=O)n(CCC(=O)N3CCN(c4cccc(C)c4C)CC3)c(=O)c2cc1OC
36. Cc1ccccc1CN(C)CC(=O)Nc1ccccc1Oc1ccccc1

Compound | 31 | 32 | 33 | 34 | 35 | 36
GCN5L2 inh | 3% | -9% | 2% | 1% | 2% | -9%
TDP1 cell CPT | -6% | 13% | 7% | ? | 23µM* | -30%

37. COc1ccc2nc3oc(C(=O)Nc4ccc(OC)c(OC)c4)cc3cc2c1
38. Cc1ccc(Nc2nc(N)c([N+](=O)[O-])c(N3CCOCC3)n2)cc1C
39. Cn1c2cc(Br)sc2c2cnn(Cc3c(F)cccc3Cl)c(=O)c21
40. C=CCn1cc(CN2CCC(C(=O)Nc3cccc(-c4cccc(F)c4)c3)CC2)c(C)n1
41. CCn1c(C(=O)N2CCC(C(=O)NCCCSC3CCCCC3)CC2)cc2sccc21
42. Cc1cc(NC(=O)CSc2nc(-c3ccccc3Cl)nc3c2c(=O)n(C)c(=O)n3C)no1

Compound | 37 | 38 | 39 | 40 | 41 | 42
GCN5L2 inh | 0% | -11% | 3%&-8% | -19% | -18% | -3%
TDP1 cell CPT | -9% | 23µM* | . | 23µM* | ? | -9%

43. Cc1ccc(C)c(N2C(=O)CS/C2=N\NC(=O)c2ccccc2Cl)c1
44. Cc1cc(Nc2ccc(Br)cc2)n2nc(C)nc2n1
45. O=C(COC(=O)CCC(=O)c1ccc2c(c1)OCCO2)NCc1ccc2c(c1)OCO2
46. Cn1cccc1C(=O)NC1CCCCC1
47. O=[N+]([O-])c1cc(S(=O)(=O)Nc2ccccc2)ccc1-n1nnc2ccccc21
48. CCN(CC)CC(=O)Nc1sc2c(c1C(=O)c1ccccc1OC)CCC2

Compound | 43 | 44 | 45 | 46 | 47 | 48
GCN5L2 inh | -3% | -2% | -1% | -9% | -11% | 0%
TDP1 cell CPT | 3% | -7% | -11% | -14% | 4% | 16µM*

49. COc1cccc(NC(=O)CSCc2cc(=O)n3ccsc3n2)c1
50. COc1ccc(-c2csc(NC(=O)CN3C(=O)C4CCCCC4C3=O)n2)cc1OC (stereo unspecified)
51. O=C(CSc1nnc(-c2ccco2)o1)c1ccccc1
52. O=C(Nc1ccc(S(=O)(=O)N2CCCC2)cc1)c1ccc(OCC2CCCO2)cc1 (stereo unspecified)
53. CC(c1ccco1)N(C(=O)c1ccccc1NS(=O)(=O)c1cccc([N+](=O)[O-])c1)c1ccccn1 (stereo unspecified)
54. COc1ccc(C(O)c2nccn2C)cc1 (stereo unspecified)

Compound | 49 | 50 | 51 | 52 | 53 | 54
GCN5L2 inh | -6% | -21% | -12% | -7% | -1% | -5%
TDP1 cell CPT | -4% | -1% | ? | -13% | ? | -4%

55. CCCCN(CC)C(=O)c1ccc2c(c1)OCO2
56. O=C(CSc1nnc2ccc(-c3cccnc3)nn12)Nc1ccc(F)cc1
57. CCc1ccc(/C=C2\SC(=S)N(CCCC(=O)Nc3nccs3)C2=O)cc1
58. Cc1ccc(N(C(=O)CNC(=O)c2ccco2)C(C(=O)NC2CCCC2)c2cccnc2)cc1F (stereo unspecified)
59. OCC[C@H]1C[C@H](O)[C@@H](O)[C@]2(Cc3ccccc3CCO2)O1
60. O=C(Cc1ccccc1)NNS(=O)(=O)c1ccc(F)cc1

Compound | 55 | 56 | 57 | 58 | 59 | 60
GCN5L2 inh | -3% | 2% | 26% | 0% | 3% | 4%
TDP1 cell CPT | -17% | -9% | ? | -13% | -22% | -9%

61. CCC(=O)N1CCc2cc(Br)cc(S(=O)(=O)CCC(=O)NCC3CCCO3)c21 (stereo unspecified)
62. Cc1cccc(C(=O)Nc2nnc(COc3ccccc3)s2)c1
63. O=C(OCC(=O)c1ccc[nH]1)c1ccc(Cl)c(Cl)c1
64. Cc1nn(CCCC(=O)NCc2ccc(F)cc2)c(=O)c2nccn12
65. CN(CC(=O)NCc1ccc(F)cc1)S(=O)(=O)c1ccc2c(c1)c(=O)n(C)c(=O)n2C
66. COc1ccc(C2N=C(c3ccccc3)NC(c3ccccc3)=N2)cc1

Compound | 61 | 62 | 63 | 64 | 65 | 66
GCN5L2 inh | -2% | ? | -3% | -2% | -1% | -5%
TDP1 cell CPT | -8% | ? | -1% | -5% | -4% | -11%

67. CN(C)c1nc(C#N)nc(N(C)C)n1
68. Cc1cc(C)n(CC(O)COc2ccc(F)cc2)n1 (stereo unspecified)
69. CCNC(=O)CCCN1C(=O)CCn2nc(-c3cccn3C)cc21
70. CCOC(=O)c1c(C)[nH]c(C(=O)OC(C)C(=O)NCc2ccccc2)c1C (stereo unspecified)
71. O=C(COc1ccc2ccccc2c1)NNC(=O)c1ccccc1
72. COc1ccc(NC(=O)CSc2nnc(-c3cccs3)n2N)c(OC)c1

Compound | 67 | 68 | 69 | 70 | 71 | 72
GCN5L2 inh | -5% | 13% | 2% | -6% | -6% | -4%
TDP1 cell CPT | -2%&-12% | 13% | 1% | ? | 17% | 4%

73. C[C@H](CO)N1C[C@H](C)[C@@H](CN(C)C(=O)Nc2ccccc2)Oc2ccc(NC(=O)C3CC3)cc2C1=O
74. N#Cc1ccc(CSc2nc(N)cc(=O)[nH]2)cc1
75. COc1ccc(OC)c(S(=O)(=O)Nc2ccc3c(c2)n(C)c(=O)n3C)c1
76. C=CCNc1ncnc2c1cnn2-c1cccc(C)c1
77. O=C(COC(=O)C1=COCCO1)NC1CCCCC1
78. O=S(=O)(c1ccc2c(c1)oc1ccccc12)N1CCOCC1

Compound | 73 | 74 | 75 | 76 | 77 | 78
GCN5L2 inh | -4% | 0% | -7%&-8% | -7% | -3% | -10%
TDP1 cell CPT | 11% | -3% | ? | -18% | ? | 1%

79. Cc1cc(C)cc(C(=O)NCC(=O)OCC(=O)c2cc(C)n(CC(F)(F)F)c2C)c1
80. Cc1cc(C)n2c(SC(C)C(=O)NC3(C#N)CCCCC3)nnc2n1 (stereo unspecified)
81. CC(C)(C)c1ccc(/C=C/C(=O)NC2=NCCS2)cc1
82. O=C(O)Cc1coc(-c2ccc(F)cc2)n1
83. COc1ccc(Br)cc1C(=O)N/N=C/c1cccnc1
84. C=CCc1cc(S(=O)(=O)c2ccc(O)c(CC=C)c2)ccc1O

Compound | 79 | 80 | 81 | 82 | 83 | 84
GCN5L2 inh | 1% | -2% | -1% | 0% | -14% | -10%
TDP1 cell CPT | 4% | 1% | -17% | 0% | 12% | -22%

85. CC1CN(C(=O)Cn2cc(S(=O)(=O)CC(=O)N(C)c3ccccc3)c3ccccc32)CC(C)O1 (stereo unspecified)
86. O=C1C(Cl)=C(N2CCOCC2)C(=O)N1c1ccccc1
87. O=C(Nc1ccc(F)c(F)c1)c1cc(S(=O)(=O)NC2CCCC2)ccc1F
88. CC(=O)N1c2ccc(S(=O)(=O)NCCC(=O)N3CCC(C)CC3)cc2CC1C (stereo unspecified)
89. COc1c2ccoc2c(OC)c2oc(=O)ccc12
90. C/C(=N/NC(=O)CNC(=O)c1cccs1)c1ccc(Cl)cc1
91. Cc1ccc(S(=O)(=O)N2CCC(C(=O)OCC(=O)N(C)c3ccccc3)CC2)cc1C
92. CC(C)CN(C(=O)CN1CCN(c2ccc(F)cc2)CC1)c1c(N)n(CC(C)C)c(=O)[nH]c1=O

Compound | 85 | 86 | 87 | 88 | 89 | 90 | 91 | 92
GCN5L2 inh | -18% | -16% | 5% | -5% | ? | -3% | -3% | -16%
TDP1 cell CPT | 14% | -21% | ? | ? | -5%&8% | -10% | -4% | -1%

Full records, looked up by structure:
`O=C(Nc1nccs1)c1cnccn1` in the list: GCN5L2 inh: -5%; TDP1 cell CPT: 3%
`Cn1cccc1C(=O)NC1CCCCC1` in the list: GCN5L2 inh: -9%; TDP1 cell CPT: -14%
